Screens from PubChem BioAssay.
PINK1 modulator: modulators of PINK1 expression. PINK1 immunofluorescence, high-content cytometry, 24 h. Potency, µM (titrated, usually from 76.6 µM), inactives show at the top dose activation (PINK1 increase), usual class: activators. 410,000 tested, 0.2% active; active = well fitted activation curve with a large enough effect; inconclusive = small, poorly fitted or top-dose-only effect; inactive = flat fitted curve, though single readings scatter; cell line not stated here;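 note: potency is the fitted concentration of half-maximal effect; % of control where 0% means no effect; nearly all actives have a fitted effect of over 65% in size; a mitochondrial uncoupler was the plate control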
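Fluorescence from anti-PINK1 antibody, together with nuclear and cell stains, was scanned on a laser-scanning cytometer. Before staining, stable-line cells were incubated 24 hours with compounds at 5 concentrations; primary antibody 12 h at 10 degrees C.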
TRPV1 potentiator: human TRPV1 potentiation; Q8NER1; TRPV1-expressing cells, Fluo-8 calcium influx, capsaicin EC20 potentiation; host cell line not named in the record; control for the full effect not named in the record; potentiation, % at 8.33 µM; 320,000 tested, 0.02% active; AID 540277; active means potentiation above 80%; inconclusive means 30% to 80%; inactive means below 30%; note: 0% is about no effect
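Cells expressing TRPV1 were dye-loaded with Fluo-8 and read kinetically: 10 s baseline, 3 min after compound (agonist portion), then 2 min after EC20 capsaicin (allosteric enhancer portion). Calcium-bound dye fluorescence at 480/520 nm.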
CtBP-E1A inh: CtBP/E1A binding inhibition; AlphaScreen GST-E1A/His-CtBP binding, 1536-well; hits give low values; control for the full effect not named in the record; activity change, % (test concentration not listed); 340,000 tested, 0.49% active; in the data active means activity change below about -65%; inconclusive means about -30% to -65%; inactive means above about -30%; note: % is set by controls: 0 for no effect and ±100 for the full control effect; compound concentration not given in the record
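Protein mix (5X: 125 nM each GST-E1A, His-CtBP) was incubated with pinned compound 2 h at 37 deg C in dark, in 50 mM Tris pH 8.0 buffer with 300 mM NaCl. Glutathione donor and nickel acceptor beads followed; AlphaScreen signal read after 1 h.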
Sfp inh: inhibitors of Bacillus subtilis Sfp phosphopantetheinyl transferase; Q9F4F7; Biochemical Sfp PPTase activity, qHTS; Potency, µM, inactives show max response, negative = inhibition, usual class: inhibitors; 310,000 tested, 3.5% active; AID 1490; active = well fitted inhibition curve with a large enough effect; inconclusive = small, poorly fitted or top-dose-only effect, or another doubt; inactive = no such curve, though single readings can be large or run the other way;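 note: the enzyme is Sfp with the accession as filed and its product quenches rhodamine fluorescence; potency is the fitted concentration of half-maximal effect; 0% = enzyme reaction without inhibitor and -100% = no enzyme wells; top concentration of the series not given in the record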
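Sfp 15 nM + cpd, 15 min RT; start w/ rhodamine-CoA 5 uM, BHQ-2-YbbR 12.5 uM (final); 50 mM Hepes pH 7.6, 10 mM MgCl2, 0.01% NP-40, 0.01% BSA; read 525/598 nm at 0 and 30 min.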
D2 PAM: potentiates the human D2 dopamine receptor allosterically; P14416; DiscoveRx D2 beta-arrestin cells, luminescence, 90 min; 100% = 57 uM dopamine signal; potentiation, % (test concentration not listed); 360,000 tested, 0.23% active; AID 624464; active = potentiation of 50% or more; inconclusive = 30% to 50%; inactive = 30% or less;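 note: compound concentration not given in the record; tested on top of an EC20 dose of dopamine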
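PathHunter D2 cells, attached overnight at 37 deg C, received compound in DMSO plus dopamine at EC20 (50 nM final) for 90 min at 37 deg C. Beta-arrestin recruitment was read as luminescence after 1 h with detection reagent at ambient temperature.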
Six1-Eya2 inh: Six1/Eya2 interaction inhibition; 360,000 tested, 0.56% active; AID 651725; AlphaScreen GST-Six1/His-Eya2 binding, biochemical; hits give low values; control for the full effect not named in the record; Q15475+O00167; activity change, % (test concentration not listed); in the data active = activity change below about -65%; inconclusive = about -30% to -65%; inactive = above about -30%; note: % is set by controls: 0 for no effect and ±100 for the full control effect; compound concentration not given in the record
Target sequence (O00167 whole entry, looked up): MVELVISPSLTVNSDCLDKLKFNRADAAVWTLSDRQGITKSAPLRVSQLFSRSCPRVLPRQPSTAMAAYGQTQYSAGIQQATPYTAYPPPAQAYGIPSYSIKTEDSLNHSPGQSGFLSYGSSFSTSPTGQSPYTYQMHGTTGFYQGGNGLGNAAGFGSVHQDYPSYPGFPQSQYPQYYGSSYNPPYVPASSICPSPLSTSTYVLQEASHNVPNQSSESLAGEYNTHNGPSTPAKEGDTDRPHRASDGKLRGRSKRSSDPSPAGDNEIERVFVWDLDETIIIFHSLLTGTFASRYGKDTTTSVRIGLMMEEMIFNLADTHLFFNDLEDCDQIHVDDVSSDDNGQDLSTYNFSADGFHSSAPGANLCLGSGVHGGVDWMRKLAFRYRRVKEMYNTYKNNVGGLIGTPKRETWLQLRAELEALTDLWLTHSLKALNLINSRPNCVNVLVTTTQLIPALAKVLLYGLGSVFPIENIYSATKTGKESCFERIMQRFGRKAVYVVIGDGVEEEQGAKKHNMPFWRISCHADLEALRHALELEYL
Target sequence (Q15475 whole entry, looked up): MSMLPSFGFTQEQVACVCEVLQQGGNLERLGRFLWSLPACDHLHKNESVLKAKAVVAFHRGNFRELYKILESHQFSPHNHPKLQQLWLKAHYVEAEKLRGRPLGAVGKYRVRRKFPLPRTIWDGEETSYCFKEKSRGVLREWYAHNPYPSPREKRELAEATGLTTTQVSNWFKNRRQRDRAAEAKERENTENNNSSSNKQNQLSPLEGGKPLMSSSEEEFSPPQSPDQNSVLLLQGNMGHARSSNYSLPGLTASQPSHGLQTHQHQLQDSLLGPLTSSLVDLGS
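Compounds are tested against tagged Six1 and Eya2 proteins bridged by glutathione donor and nickel acceptor beads; after a one-hour incubation at 37 °C without light, AlphaScreen emission is recorded.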
D2 ag: activates the human D2 dopamine receptor. activation, % (concentration not given with the values). AID 624465. DiscoveRx PathHunter D2 beta-arrestin, luminescence, 90 min; 100% = 57 uM dopamine signal. P14416. 360,000 tested, 0.084% active; in the data active = activation above about 40%; inconclusive = about 15% to 40%; inactive = below about 15%; note: compound concentration not given in the record; the text of the record calls up to 30% inactive
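DiscoveRx PathHunter D2 beta-arrestin cells (2,100/well) attached overnight, then compound-stimulated 90 min at 37 C in HBSS/10 mM HEPES/0.1% Tween-20 buffer; beta-galactosidase complementation read by luminescence after 1 h at ambient temperature. Dopamine 57 uM final (EC100) as control.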
Active calls of the source: *; u = inconclusive; x = no result given; & = joins results of further samples.

SMILES	PINK1 modulator	TRPV1 potentiator	CtBP-E1A inh	Sfp inh	D2 PAM	Six1-Eya2 inh	D2 ag
Clc1ccc(C2[C@H]3CN(CC4CCCCC4)[C@H](c4ccccc4)C34CC2(c2cccnc2)C4)cn1 (stereo partly specified)	13%	11	-5	11%&-7%	-17	-5	-5.5
COc1ccc(Br)c(C(=O)OCC(=O)NC2CCCCCC2)c1	2.6%	-13	14	x	6	9	3.4
COC(=O)c1ccc(C(NC(=O)OCc2ccccc2)/C(F)=C/[C@@H](C)C(=O)O)cc1 (stereo partly specified)	2.5%	x	4	7%	17	6	2.2
O=C1Nc2ccccc2C12OCC1(CO2)COC2(OC1)C(=O)Nc1ccccc12 (stereo unspecified)	0.0%	-5	-2	-4%	9	0	1.9
CC(C)Cn1c(-c2nn(C)cc2Cl)n[nH]c1=S	0.2%	5	1	-10%	-19	-1	-0.8
O=c1c2ccccc2nc(-c2ccccc2)n1CCN1CCOCC1	0.3%	0	-2	10%	9	5	0.5
CCN(CC)C1CCN(C(=O)c2cc(COc3ccc(-n4cncn4)cc3)on2)C1 (stereo unspecified)	0.5%	-7	-17	13%	-22	14	-1.8
NNc1nc(N)c2c(n1)-c1ccccc1CC21CCCC1	2.0%	10	-11	-16%	-19	-3	-9.2
CC(Sc1nc(C(C)(C)C)cc(-c2ccccc2)c1C#N)C(=O)Nc1ccccc1 (stereo unspecified)	7.9%	4	8	14µM*	-5	5	0.1
O=c1sc2ccccc2n1COc1ccc(Cl)cc1	4.8%	-3	46	-19%	-6	38	-1.7
Cc1nnc(SC(C)C(=O)Nc2ccc(Cl)cc2Cl)[nH]c1=O (stereo unspecified)	0.5%	x	-16	x	2	1	0.4
N#Cc1ccc(S(=O)(=O)NC2CCN(Cc3ccccc3)CC2)cc1	-1.2%	7	-4	16%	-6	5	-1.2
Cc1c(CC(=O)NCC(=O)O)c(=O)oc2cc3occ(-c4ccccc4)c3cc12	-0.7%	12	1	-1%	-10	u	-3.0
COc1ccc(CN2CC(C(=O)NCCCN3CCN(Cc4ccccc4)CC3)CC2=O)cc1 (stereo unspecified)	1.4%	-5	1	9%	-16	1	-4.3
CCOC(=O)CCCNC(=O)COC(=O)c1cc(Br)c(Br)s1	5.6%	-7	x	5%	-5	-3	-4.8
CCN(CCS(=O)(=O)c1ccc(Cl)cc1)C(=O)Nc1ccc(Cl)cc1	-0.4%	27	x	-2%	-1	-3	-1.7
CC(=O)Nc1sc(C)c(C)c1C(=O)OCC(=O)N(C)C1CCS(=O)(=O)C1 (stereo unspecified)	-2.9%	-3	-5	8%	-7	1	-4.3
Cc1ccc(-c2ccc(C(=O)O)o2)cc1Cl	-0.7%	8	5	-5%	-4	11	-2.2
Cc1nnc(SCC(=O)N2CCCC(N3CCN(c4ccc(F)cc4)CC3)C2)o1 (stereo unspecified)	0.0%	-4	-3	-1%	-13	-16	-2.0
Cc1cc(C)nc(SCCn2c(N3CCOCC3)nc3c2c(=O)[nH]c(=O)n3C)n1	0.6%	2	6	16%	0	4	-1.8
CCOc1ccc(OCCC(=O)OCC(=O)c2c(N)n(C)c(=O)n(C)c2=O)cc1	-0.5%	-12	-1	x	-2	-7	-2.6
CSc1ccccc1C(=O)NC(C)c1ccc(-n2ccnc2)cc1 (stereo unspecified)	-0.5%	-15	10	12%	-1	2	-1.4
Cc1ccc(NC(=O)C(C)OC(=O)COc2cccc(C(F)(F)F)c2)cc1 (stereo unspecified)	-0.6%	-3	x	x	-4	14	-2.8
N#Cc1ccc(Oc2nc(C(N)=O)cc(-c3ccccc3)n2)cc1	0.9%	-2	2	-1%	-4	6	-0.6
COc1ccc(N(CC(=O)NC2CCCC2)C(=O)Cn2nnc(-c3ccc(OC)c(OC)c3)n2)c(OC)c1	1.7%	1	0	2%	-28	2	-2.2
COc1cccc(N2CC34C=CC(O3)C(C(=O)O)C4C2=O)c1 (stereo unspecified)	2.2%	-5	6	15%	-11	2	-2.9
O=C(c1cccs1)N1C[C@@H](O)[C@H](n2cc(-c3ccc(F)cc3)nn2)C[C@@H]1c1ccc(Cl)cc1	4.1%	x	4	x	0	-2	-8.2
C/C(=N\NC(=O)C(=O)Nc1ccc(C)c(Cl)c1)c1ccncc1	2.6%	13	15	17%	-4	1	2.2

Profiles as entered above. Order of screens: PINK1 modulator	TRPV1 potentiator	CtBP-E1A inh	Sfp inh	D2 PAM	Six1-Eya2 inh	D2 ag
Profile of `CSc1ccccc1C(=O)NC(C)c1ccc(-n2ccnc2)cc1` (stereo unspecified) → -0.5%	-15	10	12%	-1	2	-1.4
Profile of `N#Cc1ccc(Oc2nc(C(N)=O)cc(-c3ccccc3)n2)cc1` → 0.9%	-2	2	-1%	-4	6	-0.6
Profile of `O=c1c2ccccc2nc(-c2ccccc2)n1CCN1CCOCC1` → 0.3%	0	-2	10%	9	5	0.5
Profile of `O=c1sc2ccccc2n1COc1ccc(Cl)cc1` → 4.8%	-3	46	-19%	-6	38	-1.7
Profile of `COc1ccc(N(CC(=O)NC2CCCC2)C(=O)Cn2nnc(-c3ccc(OC)c(OC)c3)n2)c(OC)c1` → 1.7%	1	0	2%	-28	2	-2.2

An excerpt from above in order of formula weight, rising:
SMILES	PINK1 modulator	TRPV1 potentiator	CtBP-E1A inh	Sfp inh	D2 PAM	Six1-Eya2 inh	D2 ag
Cc1ccc(-c2ccc(C(=O)O)o2)cc1Cl	-0.7%	8	5	-5%	-4	11	-2.2
O=c1sc2ccccc2n1COc1ccc(Cl)cc1	4.8%	-3	46	-19%	-6	38	-1.7
COc1cccc(N2CC34C=CC(O3)C(C(=O)O)C4C2=O)c1 (stereo unspecified)	2.2%	-5	6	15%	-11	2	-2.9
Cc1nnc(SCC(=O)N2CCCC(N3CCN(c4ccc(F)cc4)CC3)C2)o1 (stereo unspecified)	0.0%	-4	-3	-1%	-13	-16	-2.0

Structures from the list above containing bromine, in the order listed:
SMILES	PINK1 modulator	TRPV1 potentiator	CtBP-E1A inh	Sfp inh	D2 PAM	Six1-Eya2 inh	D2 ag
COc1ccc(Br)c(C(=O)OCC(=O)NC2CCCCCC2)c1	2.6%	-13	14	x	6	9	3.4
CCOC(=O)CCCNC(=O)COC(=O)c1cc(Br)c(Br)s1	5.6%	-7	x	5%	-5	-3	-4.8
